Source: PubChem BioAssay
VACV Venus inh: vaccinia inhibition (Venus reporter) | Vaccinia virus Venus reporter expression, fluorescence | Potency, µM (highest dose often 36.5 µM), without a hit: top-dose activity change, negative = inhibition, most hits filed as inhibitors | 330,000 tested, 0.46% active; active means well fitted inhibition curve with a large enough effect; inconclusive means small, poorly fitted or top-dose-only effect; inactive means no such curve, though single readings can be large or run the other way; tested in A549 cells; further: nearly all actives have a fitted effect of over 30% in size; inactives centre near -10
VACV mCherry inh: vaccinia inhibition (mCherry reporter); Vaccinia virus mCherry reporter infection, fluorescence; about a quarter of the inactives have no number; AID 720579; 310,000 tested, 0.63% active; Potency, µM (top dose mostly 36.5 µM), without a hit: at the highest dose activity change, negative = inhibition, most hits filed as inhibitors; active = well fitted inhibition curve with a large enough effect; inconclusive = small, poorly fitted or top-dose-only effect; inactive = no such curve, though single readings can be large or run the other way; tested in A549 cells; further: nearly all actives have a fitted effect of over 35% in size; inactives centre near -10
Active calls of the source: *; i = inactive; ? = inconclusive; . = no result given; & = joins results of further samples; [ ] = remark or other dose. On the % scale 0 is the no-effect control and ±100 the full control effect; potency means the concentration at half of the fitted maximal effect.

Screens in order – VACV Venus inh, VACV mCherry inh
- COC(=O)c1cc(OC)c(OC)cc1NC(=O)CCNC(=O)c1ccco1
→ 5%, i
- Cc1cnc(C)c(-c2cc(F)cc3c2OC(CNC(=O)Cc2c(C)noc2C)C3)n1 (centres undefined)
→ -14%, i
- Cc1ccc(NC(=O)COC(=O)c2cccc3c(=O)c(C)c(-c4ccccc4)oc23)cc1
→ -7%, i
- O=C(/C=C/c1cccc(F)c1)N1CCN(c2ncccn2)CC1
→ -2%, i
- COc1ccccc1C(=O)Nc1ccc2c3c(cccc13)CC2
→ -10%, -14%
- CCCOc1ccc(C(=O)NCCN2CCOCC2)cc1
→ -18%, i
- CCOC(=O)COc1ccc([N+](=O)[O-])cc1
→ -3%, -21%
- N#C/C(=C\c1ccccc1C(F)(F)F)C(=O)Nc1ccccc1F
→ -7%, -7%
- CN1CCN(Cc2nc3ccccc3c(=O)n2Cc2nc(-c3ccc([N+](=O)[O-])cc3)cs2)CC1
→ 10µM*, 10µM*
- Cc1nc2c(c(C)nn2-c2ccccc2)c(C)c1CCC(=O)N1CCC2(CC1)OCCO2
→ -4%, .
- Nc1ncnc2c1ncn2CCNCCc1ccccc1
→ -20%, .
- Cc1ccc(S(=O)(=O)Cn2nnnc2C(CC(C)C)N2CCN(c3ccccc3)CC2)cc1 (centres undefined)
→ -6%, -12%
- COc1ccc(NC(=O)C2Cc3c(-c4ccc(NC(C)=O)cc4)ccnc3O2)cc1 (centres undefined)
→ -20%, -29%
- CCOc1ccccc1Nc1nnc(SCC(=O)N(C)C2CCS(=O)(=O)C2)s1 (centres undefined)
→ -1%, -14%
- CCOC(=O)C1(CCc2ccccc2)CCN(Cc2csc(C(C)=O)c2)CC1
→ ?, -26%
- Nc1ncnc2c1ncn2[C@@H]1O[C@H](COP(=O)(O)O)[C@@H](O)[C@H]1O
→ -6%, i
- CC(C)c1ccc(NC(=O)CSc2nc(=O)n(CCCN3CCOCC3)c3c2CCCC3)cc1
→ -18%, -24%
- CCOc1ccc(Br)cc1CNc1ccc2c(c1)OCCO2
→ -5%, -8%
- CCOc1nc(C)ccc1-c1noc(-c2ccco2)n1
→ -7%, -19%
- O=C(Cc1n[nH]c(=O)c2ccccc12)OCC(=O)c1ccc(OC(F)F)cc1OC(F)F
→ -13%, i
- COc1ccc(NC(=O)C2CCN(C(=O)N3CCOc4ccccc43)CC2)cc1
→ -5%, -11%
- Cc1onc(-c2ccccc2Cl)c1C(=O)NC(=S)Nc1ccccc1C(N)=O
→ -13%, i
- Cn1c(N)c(C(=O)COC(=O)CCCc2c[nH]c3ccccc23)c(=O)n(C)c1=O
→ -3%, .
- Cc1ccc(-n2nc(CO)c(C(=O)NCc3ccccn3)n2)cc1C
→ -10%, -13%
- O=C(NCc1ccccc1)c1ccc(Cl)c(NC2=NC3CS(=O)(=O)CC3S2)c1 (centres undefined)
→ -23%, i
- Cc1ccccc1Nc1scc(-c2ccc(Br)cc2)[n+]1-c1ccccc1C
→ -7%, i
- CCC(=O)NCc1nc2ccccc2n1Cc1ccccc1
→ 5%, 6%
- COc1ccc(NC(=O)CSCC(=O)Nc2nnc(C3CC3)s2)cc1
→ -15%, i
- CCN(CC)c1nn2c(=O)c(C(=O)NCCc3ccc(C)cc3)cnc2s1
→ -13%, -8%
- Cc1ccc(N=Nc2c(O)n(CN3CCOCC3)c3ccccc23)cc1
→ 22%, -18%

Arranged by molar mass (largest number first): 3 of the compounds above
Screens in order – VACV Venus inh, VACV mCherry inh
- Cc1ccccc1Nc1scc(-c2ccc(Br)cc2)[n+]1-c1ccccc1C
→ -7%, i
- Cc1nc2c(c(C)nn2-c2ccccc2)c(C)c1CCC(=O)N1CCC2(CC1)OCCO2
→ -4%, .
- Nc1ncnc2c1ncn2[C@@H]1O[C@H](COP(=O)(O)O)[C@@H](O)[C@H]1O
→ -6%, i

(more compounds)
Screens in order – VACV Venus inh, VACV mCherry inh
- CCCN(CC(=O)Nc1ccccc1C)C(=O)c1ccc2ccccc2n1
→ -23%, -7%
- CN1CC2(Cc3c1ccc1ccccc31)C(=O)OC(C)(C)OC2=O
→ 6.3µM*, 4µM*
- CC(=O)c1ccc(Oc2ccc(C(=O)c3ccc(C)c(C)c3)cc2[N+](=O)[O-])cc1
→ 4%, i
- O=C(CSC1=NCCS1)N1CCCCCC1
→ -22%, .
- CCOC(=O)C1(CCOc2ccccc2)CCN(Cc2cc(OC)cc(OC)c2)CC1
→ -7%, -27%
- Cc1ccc(CN2CCN(/N=C/C=C/c3ccccc3[N+](=O)[O-])CC2)cc1
→ -10%, -16%
- COc1ccc(/C=N/Nc2nc(-c3cccc(S(=O)(=O)N4CCCC4)c3)cs2)cc1OC
→ -14%, -22%
- Cc1csc(NCC(=O)c2c(C)[nH]c3ccccc23)n1
→ -22%, -19%
- CS(=O)c1ccccc1COC(=O)Nc1cccc(Cl)c1 (centres undefined)
→ -10%, i
- COc1ccccc1NC(=O)C(C)N(C)CCOc1ccccc1 (centres undefined)
→ -16%, -30%
- Cc1ccc(OCC(=O)Nc2ccc3nc(SCC(=O)N4CCc5ccccc54)sc3c2)cc1
→ 2%, -3%
- O=c1oc2cc(O[C@@H]3OC[C@@H](O)[C@H](O)[C@H]3O)ccc2c2ccccc12
→ -8%, 11%
- CCN(CC)S(=O)(=O)c1ccc2oc(C(=O)Nc3cc(C)ccc3OC)c(C)c2c1
→ -22%, -21%
- O=C(CCc1ccccc1)NC(c1cccs1)c1cc(Cl)c2cccnc2c1O (centres undefined)
→ ?, 8.9µM*
- COc1ccc(-n2ncc(C(=O)NCCCN3CCCCC3)c2C2CCN(C(=O)OC(C)(C)C)CC2)cc1
→ -22%, -16%
- COc1ccccc1Nc1nnc(Cc2ccccc2)c(=O)[nH]1
→ 2%, i
- CC(=O)Nc1ccc(S(=O)(=O)NCC(=O)OCC(=O)NC(=O)c2cccn2C)cc1
→ -9%, 0%
- CCOC(=O)CCCNC(=O)CN1C(=O)NC2(CCCCCC2)C1=O
→ -5%, -14%
- O=C(NCc1ccccn1)C1CCCN(S(=O)(=O)c2ccccc2)C1 (centres undefined)
→ 9%, i
- CS(=O)(=O)Nc1ccc(C(=O)Nc2ccccc2C(=O)NCc2ccco2)cc1
→ -4%, -3%
- C#CCOCCOCCOCCNc1nc(N2CCN(C(=O)[C@H](CO)n3cc([C@@H](N)C(C)C)nn3)CC2)nc(N2CCN(C(=O)[C@H](CCC(=O)O)n3cc([C@@H](N)CCCCN)nn3)CC2)n1
→ -2%, i
- O=C(NC1CC1)c1ccc(N2CCCCC2)c([N+](=O)[O-])c1
→ -8%, -12%
- COc1ccc(CNC(=O)C(C)NCc2ccccc2Cl)cc1 (centres undefined)
→ 1%, -12%
- CCc1ccccc1NC(=O)c1nnn(Cc2ccc(Cl)cc2)c1N
→ -6%, -17%
- Cc1ccccc1C(=O)Nc1nnc(SCC(=O)NC2CC2)s1
→ 0%, i
- COC(=O)c1ccccc1C(=O)N1CCOCCOCCOCC1
→ -6%, i
- Cc1ccc(Sc2ncccc2C(=O)NCC(c2ccc(F)cc2)N2CCOCC2)cc1C (centres undefined)
→ -18%, -23%
- COc1ccc(C)cc1NC(=O)NCCC1=CCCCC1
→ -15%, -4%
- C/C(=N/N1CCN(c2ccccc2)CC1)c1cccc([N+](=O)[O-])c1
→ -7%, -7%
- CN(C)CCNC(=O)c1cccc(-c2cnc3c(NC=O)cc(-c4cccs4)cn23)c1
→ -8%, 16%

Continued; it opens with the 5 that closed the last part.
Screens in order – VACV Venus inh, VACV mCherry inh
- COC(=O)c1ccccc1C(=O)N1CCOCCOCCOCC1
→ -6%, i
- Cc1ccc(Sc2ncccc2C(=O)NCC(c2ccc(F)cc2)N2CCOCC2)cc1C (centres undefined)
→ -18%, -23%
- COc1ccc(C)cc1NC(=O)NCCC1=CCCCC1
→ -15%, -4%
- C/C(=N/N1CCN(c2ccccc2)CC1)c1cccc([N+](=O)[O-])c1
→ -7%, -7%
- CN(C)CCNC(=O)c1cccc(-c2cnc3c(NC=O)cc(-c4cccs4)cn23)c1
→ -8%, 16%
- CC1CN(c2ccc([N+](=O)[O-])c3cccnc23)CC(C)N1 (centres undefined)
→ 8%, .
- NC(=O)Nc1ccc(C(=O)OCC(=O)N(Cc2ccccc2)C2CCS(=O)(=O)C2)cc1 (centres undefined)
→ 2%, 9%
- O=C(CSc1n[nH]c(=O)[nH]c1=O)Nc1ccccc1C(=O)c1ccccc1
→ -13%, i
- Cn1c(SCC(=O)NCc2ccco2)nnc1-c1cccc(NC(=O)c2ccccc2)c1
→ -13%, -1%
- CC1=C(C#N)C(c2ccc3ncccc3c2)C(C#N)=C(C)N1
→ -4%, -14%
- Cc1cc(C)c(NC(=O)CSc2nc3ncc(Cl)cc3[nH]2)c(C)c1
→ -1%[7.34 µM], i[7.34 µM]
- O=C(Nc1ccc(F)c(Cl)c1)c1cc(C2CCCCN2C(=O)C2CC2)on1 (centres undefined)
→ -7%, i
- COc1ccc(/C=C2\SC(=S)N(NC(=O)c3csc4c3CCCC4)C2=O)cc1
→ 3%, -7%
- CCCOc1ccc(C(=O)N(Cc2cccs2)C2CCS(=O)(=O)C2)cc1 (centres undefined)
→ -19%&-2%, -23%&0%
- S=c1[nH]nc(-c2cccs2)n1/N=C/c1cn(-c2ccccc2)nc1-c1ccccc1
→ -16%, -22%
- CCCC(=O)NC(Oc1ccccc1Cl)C(Cl)(Cl)Cl (centres undefined)
→ -17%, -19%
- COc1ccc(-c2nc(C(=O)O)cs2)cc1OC
→ -12%, -15%
- O=C(c1ccc(Cl)cc1)N1CCCCC(Cl)C1=O (centres undefined)
→ -7%, -7%
- Cc1nn(S(=O)(=O)c2ccc(C(C)C)cc2)c(C)c1S(=O)(=O)N1CCOCC1
→ -10%, -13%
- O=C(O)C(C(=O)O)=C1C2CC3CC(C2)CC1C3
→ -7%, i
- Cc1cc(C)nc(/N=C2\NC(=O)CC3C(=O)NCCN23)n1 (centres undefined)
→ -14%, i
- COc1ccccc1CNC(=O)c1ccc2c(c1)N(Cc1c(F)cccc1Cl)C(=O)CS2
→ -15%, -17%
- Cc1ccc(C(=O)SC2=NCCS2)cc1
→ -16%, -23%
- COc1ccc(-c2cc(C(F)(F)F)nc(SCC(=O)Nc3ccc4c(c3)OCO4)n2)cc1OC
→ -3%, -11%
- O=C(NCc1ccc(Cl)cc1)c1ccc2c(c1)NC(=O)C(CS(=O)(=O)Cc1ccc(F)cc1Cl)N2 (centres undefined)
→ -3%, -18%
- C1CCc2nnc(-c3nnc4n3CCCCC4)n2CC1
→ -11%, .
- CCOC(=O)C1=C(N)n2c(s/c(=C\c3cccs3)c2=O)=C(C(=O)OCC)C1c1cccs1 (centres undefined)
→ ?, .
- CCCCCn1c(N2CCCC2)nc2c1c(=O)n(C)c(=O)n2C
→ -15%, i
- O=C(NCCCN1CCOCC1)c1cc2c([nH]c3ccccc32)c(-c2cccc(Br)c2)n1
→ -17%, i
- Cc1ccc(-n2c(O)c(/C=N/n3cnnc3)c3ccccc3c2=O)cc1
→ -7%&-13%, -7%&-13%
- CC(C)Nc1nnc(Sc2ccc(Cl)cc2[N+](=O)[O-])s1
→ -21%, -10%
- CC(=O)Nc1ccc(SCc2csc(C)n2)cc1
→ -6%, 9%
- COc1ccc2cc(C(=O)C3CCCN(C(=O)CCc4ccccn4)C3)ccc2c1 (centres undefined)
→ -3%, -13%
- CC1(c2nc3ccccc3[nH]2)c2ccccc2C(=O)N1C1CC1 (centres undefined)
→ 6%, 12%
- Cc1c(C#N)c(N)nc2c3c(sc12)NC(=O)CC3c1ccc(F)cc1 (centres undefined)
→ -10%, -8%
- O=[N+]([O-])c1ccc(N2CCN(C(=S)Nc3ccccc3)CC2)cc1
→ -9%, 2%
- CCOC(=O)c1ccccc1NC(=O)N1CCc2c(sc(C)c2CC)C1c1ccccc1 (centres undefined)
→ -4%, -15%
- CCOC(=O)Cn1c(-c2ccccc2)nc2ccccc2c1=O
→ -16%, -9%
- COc1ccc2c(c1)c(CC(=O)Nc1ccccc1OC)c(C)n2C(=O)c1ccc(Cl)cc1
→ -13%, i
- CCCCN(C=O)c1c(CC)nc2ccc(C(=O)Nc3cc(-c4ccccc4)ccc3OC)cn12
→ -18%, -1%
- CCCCC(c1nnnn1CCOC)N1CCN(C)CC1 (centres undefined)
→ 1%, i
- C=CCn1cnc2sc(C(=O)Nc3ccccc3OC)c(C)c2c1=O
→ -13%, i
- C/C(=N/Nc1ncc(Br)cn1)c1ccc(Br)cc1
→ -18%, -3%
- COC(=O)c1ccc(CSc2nc3c([nH]c4ccccc43)c(=O)n2-c2ccc(F)cc2)o1
→ -7%, -3%
- Cc1[nH]c2ccccc2c1-c1nc2ccccc2[nH]1
→ -19%, -7%
- CC1CC(CN)CC(CO)C1 (centres undefined)
→ -12%, -21%
- NC(=O)c1ccc(-c2c(-c3ccccc3)sc3ccccc23)cc1
→ -14%, ?
- COc1ccccc1NC(=O)c1ccccc1NS(=O)(=O)N1CCCC1
→ -7%, -12%
- O=C(C1CCCN(S(=O)(=O)c2cccc3nonc23)C1)N1CCC(Cc2ccccc2)CC1 (centres undefined)
→ ?, .
- Cc1sc2ncnc(SC(C)C(=O)N3c4ccccc4Sc4ccccc43)c2c1C (centres undefined)
→ -8%, -25%
- O=C(NNC(=O)c1cnccn1)c1ccc(Cl)cc1
→ 6%, ?
- Nc1nonc1-n1nnc(C(=O)N/N=C/c2ccc3c(c2)OCO3)c1CSc1ccccc1
→ -10%[7.34 µM], -4%[7.34 µM]
- CCOc1ccc(N2C(=O)CS(=O)(=O)C23C(=O)N(Cc2cccc(Cl)c2)c2ccccc23)cc1 (centres undefined)
→ -9%, -9%

Structures shown so far containing a CF3 group (2):
Screens in order – VACV Venus inh, VACV mCherry inh
- N#C/C(=C\c1ccccc1C(F)(F)F)C(=O)Nc1ccccc1F
→ -7%, -7%
- COc1ccc(-c2cc(C(F)(F)F)nc(SCC(=O)Nc3ccc4c(c3)OCO4)n2)cc1OC
→ -3%, -11%
